Assay outcomes deposited in PubChem BioAssay by National Center for Advancing Translational Sciences (NCATS).
NS1 function inh: influenza NS1 inhibition; AID 2326; Potency, µM (highest dose often 46.1 µM), for inactives: top-dose activity, positive = more growth; hit rate 0.4% among 270,000; S. cerevisiae slowed by influenza A NS1, growth recovery by OD600; active means well fitted rising curve with a large enough effect; inconclusive means small, poorly fitted or top-dose-only effect; inactive means no such curve, though single readings can be large or run the other way; note: nearly all actives have a fitted effect of over 50% in size
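In this qHTS, NS1 from influenza A is expressed in budding yeast, where it slows growth. Cells are switched from glucose to 2% galactose medium (pH 6.0, -URA), treated with compound, and growth recovery is read at OD600.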
RE007 growth inh: less growth of the S. pombe RE007 Vpr strain | hit rate 0.21% among 360,000 | AID 651644 | S. pombe RE007 Vpr strain, BacTiter-Glo ATP luminescence, 24 h; control for the full effect not named in the record | Potency, µM (top dose mostly 92.2 µM), for inactives: at the top dose activity change, negative = less growth; active = well fitted falling curve with a large enough effect; inconclusive = small, poorly fitted or top-dose-only effect; inactive = no such curve, though single readings can be large or run the other way;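 note: % is set by controls: 0 for no effect and ±100 for the full control effect; nearly all actives have a fitted effect of over 50% in size; the assay follows cell death caused by Vpr and the record does not say whether a fall means rescue or toxicity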
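Fission yeast strain RE007, carrying one chromosomally integrated HIV-1 vpr copy, was seeded at OD 0.01 in PMG+AL medium with 23 nL pinned compound. After 24 h at 30 °C and 99% humidity, viability was read by BacTiter-Glo luminescence.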
LASV entry inh: blocks Lassa virus binding to or entry into cells. Potency, µM (series often up to 37.9 µM), for inactives: at the highest dose activity change, negative = inhibition, hits mostly inhibitors. Lassa virus pseudotype entry inhibition, cell reporter; control for the full effect not named in the record. hit rate 1.2% among 300,000; active means well fitted inhibition curve with a large enough effect; inconclusive means small, poorly fitted or top-dose-only effect, or effect the other way; inactive means flat fitted curve, though single readings scatter; tested in HEK293 cells; note: % is set by controls: 0 for no effect and ±100 for the full control effect; nearly all actives have a fitted effect of over 50% in size; luciferase read-out
Cruzain inh noDet: inhibitors of Trypanosoma cruzi cruzain without detergent; Potency, µM, inactives show max response, negative = inhibition, usual class: inhibitors; purified cruzain, Z-FR-AMC fluorescence, no detergent; hit rate 2.3% among 200,000; P25779;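 note: plate controls were enzyme without inhibitor for no effect and buffer without enzyme for full effect; nearly all actives have a fitted effect of over 40% in size; top concentration of the series not given in the record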
Target sequence (P25779 123-467 limits assumed): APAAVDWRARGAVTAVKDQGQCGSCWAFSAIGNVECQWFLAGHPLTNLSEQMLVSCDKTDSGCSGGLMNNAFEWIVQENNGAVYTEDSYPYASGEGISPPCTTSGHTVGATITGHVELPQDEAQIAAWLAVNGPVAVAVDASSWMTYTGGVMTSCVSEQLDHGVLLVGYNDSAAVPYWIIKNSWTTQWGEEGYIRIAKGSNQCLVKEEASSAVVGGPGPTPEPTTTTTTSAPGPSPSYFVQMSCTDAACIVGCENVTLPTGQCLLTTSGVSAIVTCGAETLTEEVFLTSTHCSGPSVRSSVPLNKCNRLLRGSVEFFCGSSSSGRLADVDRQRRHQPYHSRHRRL
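Detergent-free condition (0.00005% Triton X-100) in acetate buffer pH 5.5 with DTT. 1.5 nM enzyme and compound were pre-mixed 15 min, then 2 uM Z-FR-AMC substrate added; reaction progress from fluorescence change between first and third reads (60 s).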
MARV entry inh: Marburg virus entry inhibition; Marburg virus pseudotyped entry inhibition, cell reporter; control for the full effect not named in the record; about a third of the inactives were read at about 46 µM; Potency, µM (titrated, usually from 37.8 µM), for the others: at the highest dose activity change, negative = inhibition, most hits filed as inhibitors; hit rate 1.8% among 300,000; AID 540276; active = well fitted inhibition curve with a large enough effect; inconclusive = small, poorly fitted or top-dose-only effect, or effect the other way; inactive = flat fitted curve, though single readings scatter; tested in HEK293 cells; about a fifth of its hits are not listed in these tables; note: % is set by controls: 0 for no effect and ±100 for the full control effect; luciferase read-out
SARS PLP yeast: blocks SARS-CoV papain-like protease in a yeast assay. Potency, µM (highest dose often 32.9 µM), for inactives: at the highest dose activity, positive = growth rescue. S. cerevisiae expressing SARS-CoV PLpro, growth rescue; control for the full effect not named in the record. hit rate 0.19% among 330,000; active means well fitted rising curve with a large enough effect; inconclusive means small, poorly fitted or top-dose-only effect; inactive means no such curve, though single readings can be large or run the other way; note: 0% is about no effect; nearly all actives have a fitted effect of over 55% in size; growth read by luminescence after 48 h
Cruzain Triton: inhibitors of Trypanosoma cruzi cruzain with detergent. Potency, µM, for the others: max response, negative = inhibition, actives largely listed as inhibitors. hit rate 0.43% among 200,000. purified cruzain, Z-FR-AMC fluorescence, 0.01% Triton. P25779;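 note: plate controls were neutral wells for no effect and buffer without enzyme for full effect; nearly all actives have a fitted effect of over 40% in size; top concentration of the series not given in the record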
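Detergent-containing run (0.01% Triton X-100) in acetate buffer pH 5.5 with 5 mM DTT: enzyme at 1.5 nM final, 15 min compound preincubation at room temperature, then 2 uM Z-FR-AMC substrate. Activity taken as 60 s fluorescence increase at 360/450 nm.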
StopGo reporter: lowers the luciferase signal of an FMDV 2A StopGo reporter; Potency, µM (top dose mostly 57.9 µM), without a hit: at the top dose signal change, negative = less light; human cells with a luciferase reporter of 2A StopGo recoding; control for the full effect not named in the record; hit rate 1.2% among 410,000; active = well fitted falling curve with a large enough effect; inconclusive = small, poorly fitted or top-dose-only effect; inactive = no such curve, though single readings can be large or run the other way; tested in HEK293T cells; note: % is set by controls: 0 for no effect and ±100 for the full control effect; nearly all actives have a fitted effect of over 45% in size; luciferase light after 4 h
The depositor's hits bear a star; ? = inconclusive; nt = no result given; & = joins results of further samples; [ ] = another dose, or the depositor's remark. Unless noted, calls come from the whole dose curve; as a rule, active = well fitted curve in the direction sought with a large enough effect; inconclusive = small, poorly fitted or top-dose-only effect, or another doubt; inactive = no such curve, though single readings can be large; an effect the other way counts as inactive or inconclusive. Potency is the fitted concentration of half-maximal effect.

SMILES	NS1 function inh	RE007 growth inh	LASV entry inh	Cruzain inh noDet	MARV entry inh	SARS PLP yeast	Cruzain Triton	StopGo reporter
Cc1ccc(-c2nnc(Nc3ccc(OCC(N)=O)cc3)c3ccccc23)cc1S(=O)(=O)NCC1CCCO1 (configuration not stated)	nt	nt	-28%[46.1 µM]	7%	11%[46.1 µM]	nt	2.1%	65%[activator]
CC(C)Nc1nc(NC2CCCC2)nc(N2CCOCC2)n1	nt	1%	-9%[46.1 µM]	nt	?	0%	nt	-24%
O=C(c1cn(-c2ccccc2)nc1-c1cccs1)N1CCN(c2ccc(F)cc2)CC1	?	30%	?	7%	?	-8%	-7.3%	?
COC(=O)c1ccc(N2CCN(C)CC2)c(NC(=O)COc2ccc(C)cc2)c1	-8%	8%	nt	nt	nt	-6%	nt	-14%
Cc1ccccc1NC(=O)NCCCN1CCN(c2ccccc2)CC1	1%	1%	13%	1%	?	-10%	5.1%	-4%
COc1ccc(C2c3c(ncn(Cc4ccco4)c3=N)Oc3ccc4ccccc4c32)cc1 (configuration not stated)	?	-8%	?	?	?	-3%	-16%	-7%
CCc1ccccc1N(CC(=O)NC1CCCCC1)C(=O)CCCC(=O)Nc1ccccn1	1%	40%	nt	nt	?	0%	nt	26%
COc1cc(/C=C(\C#N)C(=O)Nc2cccnc2)ccc1OC(C)C	11%	nt	-4%	3%	?	2%	-1.3%	0%
Cc1ccc(C(=O)NC(=S)/C=C2\N(C)c3ccccc3C2(C)C)cc1	6%	-5%	nt	-13%	-2%	-38%	?	-27%
COc1ccccc1N1C(=O)NC(=O)/C(=C/c2ccc3c(c2)Cc2ccccc2-3)C1=O	-2%	-25%	-13%[46.1 µM]	?	-2%	26%	-7.7%	-12%
Cc1ccc(N2C(=O)CCC(C(=O)O)C2c2cccs2)cc1 (configuration not stated)	11%	12%	26%	nt	-2%[46.1 µM]	?	nt	0%
O=C(N/N=C/c1cccs1)C1CC(=O)N(c2ccccc2)C1 (configuration not stated)	3%	-8%	-6%	?	-2%	0%	-3.1%	-7%
CCN(CC)CCCNc1ccc2ncn3c4ccc(O)cc4c(=O)c1c23	nt	11%	?	nt	?	nt	nt	?
CC(=O)c1cccc(NC(=O)CN2C(=O)c3cccnc3Sc3ccccc32)c1	nt	nt	1%[46.1 µM]	-11%	nt	nt	-7.5%	8%
O=C(NCCc1ccccc1F)C1CC(=O)N(c2cccc(C(F)(F)F)c2)C1 (configuration not stated)	nt	16%	-3%	nt	?	nt	nt	-8%
O=C(CN1CCOCC1)Nc1ccccc1Sc1ccccc1	-14%	-10%	17%[46.1 µM]	12%	16%[46.1 µM]	1%	-3.3%	0%
O=C(Nc1ccc(Cl)cc1)N(Cc1cccs1)Cc1cccs1	0%	-14%	3%	-3%	?	-3%	-2.9%	-17%
Cc1ccc2c(c1)N(Cc1ccc([N+](=O)[O-])cc1)C=NS2(=O)=O	13%	88%	-18%[46.1 µM]	nt	-7%[46.1 µM]	-2%	nt	-22%
CN1C(=O)[C@@H]2[C@@H]3C[C@@H]([C@H]4ON=C(c5ccc(Cl)cc5Cl)[C@@H]34)[C@@H]2C1=O	-2%	-2%	2%	6%	15%	11%	-1.7%	-21%
Cc1ccc(C(=O)N/N=C/c2ccc(-c3ccccc3[N+](=O)[O-])o2)cn1	-28%	0%	18%	1%	5%	-6%	-10%	-25%

Two compounds from above, reduced to SARS PLP yeast:
compound,SARS PLP yeast
Cc1ccc(N2C(=O)CCC(C(=O)O)C2c2cccs2)cc1 (configuration not stated),?
O=C(N/N=C/c1cccs1)C1CC(=O)N(c2ccccc2)C1 (configuration not stated),0%

Carrying on:
SMILES	NS1 function inh	RE007 growth inh	LASV entry inh	Cruzain inh noDet	MARV entry inh	SARS PLP yeast	Cruzain Triton	StopGo reporter
COc1cc2[nH]c(=O)n(CCC(=O)NCCCN3CCN(c4ccccc4F)CC3)c(=O)c2cc1OC	nt	?	12%[46.1 µM]	nt	2%[46.1 µM]	3%	nt	-9%
CCC(C(=O)NC(C)(C)C)N(Cc1ccc(F)cc1)C(=O)c1snc(C(N)=O)c1N (configuration not stated)	22%	5%	18%	nt	?	6%	nt	-10%
CC1=C(C)CC2C(=O)N(Cc3ccccc3)C(=O)C2C1 (configuration not stated)	0%	2%	5%	-7%	7%	-6%	-0.2%	nt
CCC(=O)Nc1nc2ccccc2n1Cc1ccc(C)cc1	-18%	2%	-25%	-11%	-19%	13%	4.5%	0%
COc1ccc(Cc2nnc(NCCO)[nH]c2=O)cc1	-13%	11%	nt	nt	nt	1%	nt	-8%
COC(=O)Nc1ccc2c(c1)N(C(=O)CCN1CCN3CCCC3C1)c1ccccc1CC2 (configuration not stated)	3%	1%&0%	0%&-8%	2%	-22%	5%&-1%	5.1%	-15%&-20%
CCOc1ccc(C(=O)Nc2nncs2)cc1OCC	-2%	-6%	5%	-4%	-8%	-6%	4.1%	nt
COc1cccc(CNC(=O)C2CSC3(C)CCC(=O)N23)c1 (configuration not stated)	nt	-14%	0%[46.1 µM]	nt	6%	-2%	nt	21%
COC(=O)c1ccc(Oc2ccc(S(=O)(=O)N3CCCCC3)cc2N)cc1	-12%	11%	?	nt	?	-1%	nt	?
Cc1nn(C(=O)c2ccc(Cl)cc2)c(C)c1Sc1ccc(Cl)cc1	nt	nt	-27%[46.1 µM]	-9%	nt	nt	-6.7%	?
CC1CCCCN1CCNC(=O)C1CCN(S(=O)(=O)c2cccc3cccnc23)CC1 (configuration not stated)	2%	-1%	nt	4%	0%	9%	-1.9%	-14%
CC(=O)c1cccc(S(=O)(=O)N2CCCC(c3nc4c(nnn4Cc4cccc(Cl)c4)c(=O)[nH]3)C2)c1 (configuration not stated)	4%	1%	?	nt	?	5%	nt	-20%
Cc1nn(-c2ccccc2)c2c1C(O)CC(C)(C)C2 (configuration not stated)	-2%	-2%	nt	nt	nt	0%	nt	-14%
CCc1cc2c(=O)c(-c3nc4ccccc4n3C)c(C)oc2c(CN(CC)CC)c1O	2%	0%	15%	2%	-4%	-27%	-4.4%	-9%
CCOC(=O)c1cnn(-c2ccc(C(=O)Nc3cc(OC)c(OC)c(OC)c3)cc2)c1N	nt	nt	8%[46.1 µM]	-7%	nt	nt	1.8%	-14%
Cn1c(CNc2ccc(F)cc2)nnc1SCC(=O)NNC(=O)Cc1ccccc1	1%	1%	-22%[46.1 µM]	nt	-6%[46.1 µM]	1%	nt	-8%
CC(C(=O)NC1CCCCCC1)c1ccc([N+](=O)[O-])cc1 (configuration not stated)	-15%	2%	-3%	nt	?	-1%	nt	-27%
O=C(Nc1cccc(Cl)c1Cl)c1ccccc1OCC(=O)N1CCOCC1	-18%	2%	-4%	nt	4%	-2%	nt	-6%
Cc1ccc2c(c1)[C@@H]1CN(C)CC[C@@H]1N2S(=O)(=O)c1ccc([N+](=O)[O-])cc1	-5%	-1%	-25%	5%	?	-3%	4.8%	-13%
CCOc1cc(C(N)=O)cc(OCC)c1OCC	-4%	5%	-10%	9%	16%	-3%	1.1%	0%

Overlap with the part before: 2 compounds, followed by the next part.
SMILES	NS1 function inh	RE007 growth inh	LASV entry inh	Cruzain inh noDet	MARV entry inh	SARS PLP yeast	Cruzain Triton	StopGo reporter
Cc1ccc2c(c1)[C@@H]1CN(C)CC[C@@H]1N2S(=O)(=O)c1ccc([N+](=O)[O-])cc1	-5%	-1%	-25%	5%	?	-3%	4.8%	-13%
CCOc1cc(C(N)=O)cc(OCC)c1OCC	-4%	5%	-10%	9%	16%	-3%	1.1%	0%
Cc1ccc(NC(=O)CCc2c(C)[nH]c(=O)c(C#N)c2C)cc1	?	-25%	-8%	nt	3%[46.1 µM]	25%	nt	8%
CCOC(=O)C1CCN(CC(O)COc2ccc(C(C)(C)CC)cc2)CC1 (configuration not stated)	-8%	29%	-25%	7%	?	-8%	3.2%	-20%
COc1ccc2ccccc2c1CN(C)Cc1ccccc1	1%	-10%	nt	nt	nt	2%	nt	-14%
CCc1ccccc1NC(=O)c1ccc(S(=O)(=O)NCC2CCCO2)cc1 (configuration not stated)	-2%	9%	-25%[46.1 µM]	nt	-24%[46.1 µM]	-11%	nt	0%
O=C(COc1ccc(Cl)cc1Cl)NN=C1CCCCC1	-14%	-7%	-3%[46.1 µM]	10%	16%[46.1 µM]	-28%	-1.2%	30%
COC(=O)C(O)(c1ccc(N(C)C)cc1)C(F)(F)F (configuration not stated)	2%	-8%	1%	nt	2%	0%	nt	-15%

Fetched by compound from the list above, 4 records:
SMILES	NS1 function inh	RE007 growth inh	LASV entry inh	Cruzain inh noDet	MARV entry inh	SARS PLP yeast	Cruzain Triton	StopGo reporter
Cc1ccc(NC(=O)CCc2c(C)[nH]c(=O)c(C#N)c2C)cc1	?	-25%	-8%	nt	3%[46.1 µM]	25%	nt	8%
CCOC(=O)C1CCN(CC(O)COc2ccc(C(C)(C)CC)cc2)CC1 (configuration not stated)	-8%	29%	-25%	7%	?	-8%	3.2%	-20%
COc1ccc2ccccc2c1CN(C)Cc1ccccc1	1%	-10%	nt	nt	nt	2%	nt	-14%
O=C(COc1ccc(Cl)cc1Cl)NN=C1CCCCC1	-14%	-7%	-3%[46.1 µM]	10%	16%[46.1 µM]	-28%	-1.2%	30%
